Bioassay records from PubChem BioAssay.
Six1-Eya2 blk – inhibitors of human Six1/Eya2 interaction; Q15475+O00167; AlphaScreen GST-Six1/His-Eya2 binding, biochemical; active compounds read low; control for the full effect not named in the record; activity change, % (no concentration beside the values); 360,000 compounds, 0.56% hits; AID 651725; in the data active = activity change below about -65%; inconclusive = about -30% to -65%; inactive = above about -30%; note: % is set by controls: 0 for no effect and ±100 for the full control effect
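Homogeneous AlphaScreen proximity assay pairing GST-Six1 with His-tagged Eya2 (added as 5X mix: 250 nM and 500 nM) in 50 mM Tris pH 8.0, 300 mM NaCl, 1 mM TCEP. Glutathione donor and nickel acceptor beads; 1 h, 37 °C, dark.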
D2 agonist – human D2 receptor agonism in beta-arrestin assay; P14416; DiscoveRx PathHunter D2 beta-arrestin, luminescence, 90 min; 100% = 57 uM dopamine signal; activation, % (test concentration not listed); 360,000 compounds, 0.084% hits; in the data active = activation above about 40%; inconclusive = about 15% to 40%; inactive = below about 15%; note: compound concentration not given in the record; the text of the record calls up to 30% inactive
Target sequence (P14416 whole entry, looked up): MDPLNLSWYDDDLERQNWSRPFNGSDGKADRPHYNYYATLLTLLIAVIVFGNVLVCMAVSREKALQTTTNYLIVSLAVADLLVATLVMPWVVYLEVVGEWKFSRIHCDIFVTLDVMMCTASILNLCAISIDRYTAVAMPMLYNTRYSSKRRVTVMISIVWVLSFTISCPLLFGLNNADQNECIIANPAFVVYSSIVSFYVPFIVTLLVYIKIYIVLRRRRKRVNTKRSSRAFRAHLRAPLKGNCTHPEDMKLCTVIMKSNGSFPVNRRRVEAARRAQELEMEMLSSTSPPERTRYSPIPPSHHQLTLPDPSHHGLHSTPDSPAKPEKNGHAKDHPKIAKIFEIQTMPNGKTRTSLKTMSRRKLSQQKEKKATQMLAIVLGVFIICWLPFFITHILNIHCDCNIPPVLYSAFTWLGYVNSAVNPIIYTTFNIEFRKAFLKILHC
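Agonist mode: compounds alone added to overnight-plated D2 PathHunter cells for 90 min at 37 C, with 57 uM final dopamine (EC100) defining full response. Beta-arrestin recruitment detected by chemiluminescent reagent, read after 1 h at ambient temperature.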
CtBP-E1A blk – CtBP/E1A binding inhibition; 340,000 compounds, 0.49% hits; activity change, % (test concentration not listed); AID 651724; AlphaScreen GST-E1A/His-CtBP binding, 1536-well; active compounds read low; control for the full effect not named in the record; in the data active means activity change below about -65%; inconclusive means about -30% to -65%; inactive means above about -30%; note: % is set by controls: 0 for no effect and ±100 for the full control effect
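In 5 uL wells, 23 nL compound meets equimolar GST-E1A and His-CtBP (5X stock 125 nM each) for 2 h, 37 °C. Beads (5X, 50 ug/mL) then 1 h, 37 °C, dark.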
TRPML1 inh – human mucolipin-1 channel inhibition. AID 624415. 390,000 compounds, 0.02% hits. Q9GZU1. activity change, negative = inhibition, % (test concentration not listed). TRPML1-inducible cells, Ca2+ dye fluorescence, FDSS; active compounds read low; inhibition of EC80 agonist-evoked calcium signal; in the data active means activity change below about -50%; inconclusive means about -30% to -50%; inactive means above about -30%;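 note: stimulus is agonist 54-4 at its EC80 concentration; % is set by controls: 0 for no effect and ±100 for the full control effect; compound concentration not given in the record; the text of the record puts the active cut at -80%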
Target sequence (Q9GZU1 whole entry, looked up): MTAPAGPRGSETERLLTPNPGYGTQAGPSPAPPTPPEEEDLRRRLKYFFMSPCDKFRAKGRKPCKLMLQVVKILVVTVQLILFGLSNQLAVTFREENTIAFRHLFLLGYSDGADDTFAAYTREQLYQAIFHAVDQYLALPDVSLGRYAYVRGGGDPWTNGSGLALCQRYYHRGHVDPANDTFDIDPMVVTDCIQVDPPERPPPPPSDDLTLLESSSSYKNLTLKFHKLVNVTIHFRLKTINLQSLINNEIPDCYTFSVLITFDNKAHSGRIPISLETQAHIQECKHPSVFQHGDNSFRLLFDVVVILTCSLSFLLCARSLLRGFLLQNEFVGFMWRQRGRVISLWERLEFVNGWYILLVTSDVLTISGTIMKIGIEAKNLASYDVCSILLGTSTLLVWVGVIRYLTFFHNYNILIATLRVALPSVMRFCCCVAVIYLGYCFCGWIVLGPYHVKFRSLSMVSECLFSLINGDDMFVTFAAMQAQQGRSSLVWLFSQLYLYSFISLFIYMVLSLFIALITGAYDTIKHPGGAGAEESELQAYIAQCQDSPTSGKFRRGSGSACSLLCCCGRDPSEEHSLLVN
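TRPML1-DL cells, Tet-induced overnight (~16 h, 37 °C) at 1,500 cells/well, were loaded with Ca8 no-wash dye plus quencher for 45-90 min at room temperature. Compounds were pinned during FDSS kinetic reading; agonist 54-4 at EC80 (4 uM final) then added.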
TRPML1 ag – human mucolipin-1 channel agonism; activation, % (concentration not given with the values); Q9GZU1; 410,000 compounds, 0.12% hits; TRPML1-expressing cells, Ca2+ dye fluorescence, FDSS; host cell line not named in the record; reference of the full effect not given here; in the data active = activation above about 50%; inconclusive = about 30% to 50%; inactive = below about 30%; note: 0% is about no effect; the text of the record puts the active cut at 80%
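Kinetic FDSS Ca2+ read in Tet-induced TRPML1-DL cells (ABD Ca8 dye plus quencher, 45-90 min RT loading): baseline, then compound, then 110 s agonist window; EC80 agonist 54-4 at 4uM final added afterwards for a 110 s antagonist window.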
PINK1 expr mod – modulators of PINK1 expression; AID 624263; Potency, µM (highest dose often 76.6 µM), for the others: at the top dose activation (PINK1 increase), actives largely listed as activators; 410,000 compounds, 0.2% hits; PINK1 immunofluorescence, high-content cytometry, 24 h; active = well fitted activation curve with a large enough effect; inconclusive = small, poorly fitted or top-dose-only effect; inactive = flat fitted curve, though single readings scatter; cell line not stated here;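 note: potency is the fitted concentration of half-maximal effect; % of control where 0% means no effect; nearly all actives have a fitted effect of over 65% in size; a mitochondrial uncoupler was the plate control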
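Decision-based qHTS: stable cells, 24 h exposure to five compound concentrations, CCCP as control. Fixed cells stained for PINK1 plus nuclear, mitochondrial and cell markers, cytometer read.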
Numbers without * were called inactive; ? = inconclusive; · = no result given; [ ] = dose if it differs, or a comment.

Start of the listing, in advance, 7 compounds:
1. CC(C)(C)NC(=O)CN(Cc1cccs1)C(=O)c1csnn1
2. COc1ccnc2c1c(=O)n(Cc1ccc(F)cc1)c(=O)n2C
3. O=C(C[C@H]1C/C=C\C[C@@H](Cc2ccc(F)cc2)C(=O)OC[C@H]2CCCN2C1=O)NCCO
4. COc1cc(/C=C/C(=O)OCC(=O)N(C)Cc2ccccc2)ccc1O
5. CCCN(C(=O)c1cc2c(s1)-c1ccccc1OC2)c1ccc(C(C)C)cc1
6. Clc1ccccc1Sc1ccc(-c2ccccn2)s1
7. Cc1ccc(C(=O)COC(=O)C2CCC2)cc1
assay / compound	1	2	3	4	5	6	7
Six1-Eya2 blk	-11	-4	8	-2	·	27	-1
D2 agonist	-1.3	-1.1	0.1	-1.5	·	0.7	-2.3
CtBP-E1A blk	-11	-5	5	-4	·	26	-8
TRPML1 inh	-7	2	6	0	-7	-3	1
TRPML1 ag	0.1	-0.2	-0.1	0.8	0.6	2.7	2.2
PINK1 expr mod	-1.9%	0.5%	0.3%	0.3%	1.1%	3.2%	2.1%

This part in full, previewed entries included:
1. CC(C)(C)NC(=O)CN(Cc1cccs1)C(=O)c1csnn1
2. COc1ccnc2c1c(=O)n(Cc1ccc(F)cc1)c(=O)n2C
3. O=C(C[C@H]1C/C=C\C[C@@H](Cc2ccc(F)cc2)C(=O)OC[C@H]2CCCN2C1=O)NCCO
4. COc1cc(/C=C/C(=O)OCC(=O)N(C)Cc2ccccc2)ccc1O
5. CCCN(C(=O)c1cc2c(s1)-c1ccccc1OC2)c1ccc(C(C)C)cc1
6. Clc1ccccc1Sc1ccc(-c2ccccn2)s1
7. Cc1ccc(C(=O)COC(=O)C2CCC2)cc1
8. Cc1ccc(C)c(NC(=O)CCc2c(C)n(C)c3cc(-c4ccccc4C)nn3c2=O)c1
assay / compound	1	2	3	4	5	6	7	8
Six1-Eya2 blk	-11	-4	8	-2	·	27	-1	·
D2 agonist	-1.3	-1.1	0.1	-1.5	·	0.7	-2.3	·
CtBP-E1A blk	-11	-5	5	-4	·	26	-8	·
TRPML1 inh	-7	2	6	0	-7	-3	1	10
TRPML1 ag	0.1	-0.2	-0.1	0.8	0.6	2.7	2.2	2.3
PINK1 expr mod	-1.9%	0.5%	0.3%	0.3%	1.1%	3.2%	2.1%	-1.0%

9. Cc1noc(C)c1NC(=O)Nc1ccc2c(c1)C(=O)N([C@H](C)CO)C[C@H](C)[C@@H](CN(C)C(=O)NC(C)C)O2
10. CCN(CC)S(=O)(=O)c1ccc2c(c1)N(CC(=O)Nc1ccc(Cl)cc1)C(=O)C1CCCN21 (stereo not given)
11. O=C(c1cccnc1)C1CCCN(Cc2nc(Cc3ccccc3)no2)C1 (stereo not given)
12. CCOc1ccc2c(c1)c(=O)c(S(=O)(=O)c1ccc(CC)cc1)cn2C
13. O=C(COC(=O)CCCSc1nc2ccccc2[nH]1)Nc1cccc(F)c1
14. O=C(NCc1cccnc1)c1ccc2nc([C@@H]3O[C@H](CO)[C@H](O)[C@H](O)[C@H]3O)[nH]c2c1
15. CC[C@]12c3[nH]c4ccccc4c3CCN1C(=O)C(CC(=O)NCCCn1ccnc1)C[C@@H]2C(=O)N1CCN(C(=O)c2ccco2)CC1 (stereo not given in full)
16. O=C(CSc1cn(CC(=O)N2CCCCCC2)c2ccccc12)NCC1CCCO1 (stereo not given)
assay / compound	9	10	11	12	13	14	15	16
Six1-Eya2 blk	4	·	-17	3	1	5	1	-4
D2 agonist	0.2	·	-6.5	-3.0	0.2	-1.0	-1.1	0.0
CtBP-E1A blk	7	·	5	9	-1	11	-1	5
TRPML1 inh	-16	-1	-6	-3	0	·	-10	-17
TRPML1 ag	-0.2	1.9	-0.7	-0.4	0.5	-0.2	-0.2	-0.2
PINK1 expr mod	0.3%	-0.2%	0.1%	6.1%	-1.1%	0.4%	-0.9%	0.2%

17. COc1cccc(NC(=O)CN(C)S(=O)(=O)c2ccc3c(c2)n(C)c(=O)c(=O)n3C)c1
18. Cc1cccc(NC(=O)c2sc(NC(=O)c3ccco3)c(C#N)c2C)c1C
19. COC(=O)c1c(-c2ccc(S(C)(=O)=O)cc2)sc2cc(OC)ccc12
20. Cc1cccc(CNc2ccc(C(CC(N)=O)NC(=O)c3cccc(Br)c3)cc2[N+](=O)[O-])c1 (stereo not given)
21. COc1ccc(CN2C(=O)NC3(CCCCCC3)C2=O)cc1F
22. CCn1c(=NC(=O)c2ccc(N3C(=O)CCC3=O)cc2)sc2c(OC)ccc(OC)c21
23. N#CCC(CNc1ncc(C(F)(F)F)cc1Cl)OC(=O)c1ccc(Cl)cc1 (stereo not given)
24. CCOC(=O)c1[nH]cnc1C(=O)Nc1ccc(Cl)cc1
assay / compound	17	18	19	20	21	22	23	24
Six1-Eya2 blk	3	-4	2	0	3	-13	17	-6
D2 agonist	-6.6	1.3	-2.3	-4.2	-0.4	-3.3	2.5	0.1
CtBP-E1A blk	11	-4	9	0	9	-7	9	-11
TRPML1 inh	23	1	2	0	18	-8	-3	14
TRPML1 ag	-0.5	-0.4	-0.7	0.9	-0.9	0.1	3.9	3.0
PINK1 expr mod	0.0%	1.1%[38.3 µM]	3.4%	3.8%	2.5%	6.4%	-0.7%[38.3 µM]	-2.3%

25. Cc1cc(/C=C2\C(=N)N3N=C(c4ccco4)SC3=NC2=O)c(C)n1Cc1ccccc1
26. COCc1ccc(C(=O)N2CCCC(C(=O)c3cc(F)ccc3F)C2)s1 (stereo not given)
27. COc1ccc(Cl)cc1NC(=O)c1ccco1
28. COc1cccc(NC(=O)C(=O)NCCc2csc3nc(-c4ccccc4C)nn23)c1
29. CN(C(=O)C1CCC(=O)N(Cc2cccc(F)c2)C1)C1CCCCC1 (stereo not given)
30. O=C1NCCOC(=O)[C@@H](Cc2ccc(F)cc2)C/C=C\C[C@@H]1CC(=O)N(CCO)Cc1ccccc1
31. CCCCn1nnnc1C(c1cc2ccccc2o1)N(C)Cc1ccc(Cl)c(Cl)c1 (stereo not given)
32. CC1CCCCC12NC(=O)N(CC(=O)Nc1ccccc1N1CCOCC1)C2=O (stereo not given)
assay / compound	25	26	27	28	29	30	31	32
Six1-Eya2 blk	-17	10	-1	·	6	2	0	17
D2 agonist	-8.9	-4.8	-4.7	·	2.1	-7.6	·	-2.0
CtBP-E1A blk	-10	3	-7	·	7	6	13	-12
TRPML1 inh	-13	25	3	-5	13	-9	·	-5
TRPML1 ag	-0.1	-0.3	-0.4	0.8	0.5	-0.5	3.0	0.5
PINK1 expr mod	1.1%	-0.4%	2.6%	1.7%	-0.5%	-0.7%	2.8%	1.2%

33. Cc1ccc(C(=O)NNC(=O)c2ccc3c(c2)OCCO3)cc1
34. CCOC(=O)c1c(-c2cccs2)csc1NC(=O)CN1CC(C)OC(C)C1 (stereo not given)
35. C/C(=N\O)C1(C)N(O)C(C)(C)C(c2ccc(F)cc2)=[N+]1[O-] (stereo not given)
36. Cc1ccc(C)c(-n2c(CNC(=O)c3ccco3)nnc2SCC(=O)N2CCc3ccccc32)c1
37. CCOc1ccc(C(=O)NC(=S)N2CCN(c3ccc(C(F)(F)F)cc3[N+](=O)[O-])CC2)cc1
38. CSc1ncc(CN2CCN(CC=C(C)C)C(CCO)C2)cn1 (stereo not given)
39. COc1ccc(OC)c2sc(N3CCN(C(=O)C4COc5ccccc5O4)CC3)nc12 (stereo not given)
40. COC(=O)[C@]1(C)N[C@H](CN(C)S(=O)(=O)c2ccc(C(C)(C)C)cc2)[C@@H]2C(=O)N(C)C(=O)[C@@H]21
assay / compound	33	34	35	36	37	38	39	40
Six1-Eya2 blk	5	-1	-1	-7	0	-1	·	0
D2 agonist	-0.1	-5.9	2.6	-5.6	-2.5	-2.5	·	-2.3
CtBP-E1A blk	-1	7	8	7	13	1	·	4
TRPML1 inh	15	16	-3	0	8	0	30	40
TRPML1 ag	0.5	-0.6	-0.3	-0.2	0.6	-0.8	1.2	-0.8
PINK1 expr mod	3.2%	7.7%	0.8%	11%	14%	0.6%	0.0%	0.5%

41. O=C(NN/C(=N/S(=O)(=O)c1ccc(Cl)cc1)c1ccccc1)c1ccc(O)cc1
42. COc1ccc(Cl)cc1NC(=O)C12CCC(C)(C(=O)O1)C2(C)C (stereo not given)
43. COc1ccc(Cc2nc3ccc(C(=O)NCc4cc(C)no4)cc3o2)cc1OC
44. CCc1cccc2c(C(=O)CN3C(=O)NC4(CCc5ccccc54)C3=O)c[nH]c12 (stereo not given)
45. COc1ccc(OC)c(NC(=O)/C=C/c2ccc(C)o2)c1
46. CC(=O)Nc1ccc(S(=O)(=O)NC(CSc2ccc(C(=O)O)cc2[N+](=O)[O-])C(=O)O)cc1 (stereo not given)
47. CN(CC(=O)OCC(=O)NCC(F)(F)F)S(=O)(=O)c1ccc(Cl)cc1
48. COc1ccc(-c2cc(C(F)(F)F)nc(SCCC(=O)Nc3cc(C)on3)n2)cc1
49. COc1ccc(CC(=O)OCC(=O)Nc2c(C)n(C)n(-c3ccccc3)c2=O)cc1OC
50. O=[N+]([O-])c1cc(-c2ccc(C(=S)N3CCOCC3)o2)ccc1Cl
51. CCOC(=O)c1cnc(-c2ccccc2)nc1Oc1cccc(Cl)c1
assay / compound	41	42	43	44	45	46	47	48	49	50	51
Six1-Eya2 blk	2	3	-3	-5	·	3	0	3	0	?	10
D2 agonist	1.6	4.1	-0.4	-0.3	·	-8.6	-0.2	-2.9	1.6	5.8	-2.4
CtBP-E1A blk	-14	11	8	-3	·	7	8	5	5	?	16
TRPML1 inh	7	-6	0	6	8	·	0	46	2	1	-3
TRPML1 ag	-1.8	0.1	0.1	2.0	1.0	·	-0.2	0.6	-0.4	1.0	0.4
PINK1 expr mod	-2.4%	5.3%[38.3 µM]	5.0%	-0.7%	1.4%	1.3%	2.1%	8.7%	-0.4%	-0.9%	0.9%
